# High-throughput results: PubChem BioAssay, several laboratories
# YopH PTP inh – YopH (Yersinia) phosphatase inhibition; fluorescence Ex485/Em525; inhibition, %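 (about 10 µM by stock and volumes)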; hit rate 0.16% among 140,000; AID 898;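 active = inhibition of 50% or more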;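 also: controls were vehicle for no effect and minimum signal wells for full effect; inactives centre near -20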
# Mtb H37Rv – M. tuberculosis H37Rv growth inhibitors, H37Rv strain (AID 1626). inhibition, % at 10 µM; hits with a dose series show IC50 in µM. M. tuberculosis H37Rv growth inhibition; higher % means a stronger effect. hit rate 0.95% among 220,000;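 active = confirmed in a dose series; inconclusive = inhibition above 80% but not taken into the dose series; inactive = below 80% or under 30% at every dose of the series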;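 also: bacteria incubated seven days before Alamar blue readout; 0% = bacteria only wells and 100% = bacteria with antibiotic wells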
# Arbovirus inh – blocks arbovirus infection; arbovirus infection cell-based antiviral screen; inhibition, % at 10 µM; hit rate 0.37% among 200,000; AID 1251;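 active = inhibition from about 30%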;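 also: bluetongue infection of BSR cells; cell survival read as ATP light after 72 h; 0% = infected wells without compound and 100% = uninfected wells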
# Mtb betalactam – beta-lactam sensitization of Mtb H37Rv | hit rate 0.27% among 330,000 | inhibition, % at 25 µM | M. tuberculosis H37Rv growth with meropenem, percent inhibition; hits of this screen are not shown here | AID 434955;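 active = about 74% or more and at least 40 points above the plate without the antibiotic, then above 30% in a dose series; inconclusive = first-round hits that could not be retested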;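 also: growth measured after seven days incubation then overnight dye step; 0% = bacteria only wells and 100% = bacteria with antibiotic; twin plates without the antibiotic show which effects depend on it; some results filed as inactive read as strong as hits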
# RecA intein inh – blocks M. tuberculosis RecA intein splicing; cell-free RecA intein splicing, fluorescence; hit rate 0.75% among 290,000; AID 2221; inhibition, %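 (about 9 µM by stock and volumes)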; in the data active = inhibition above about 30%; inconclusive = no clear call, values can overlap the other calls;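 also: 0% = vehicle wells and 100% = reference inhibitor control wells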
# Target sequence (P9WHJ3 whole entry, looked up): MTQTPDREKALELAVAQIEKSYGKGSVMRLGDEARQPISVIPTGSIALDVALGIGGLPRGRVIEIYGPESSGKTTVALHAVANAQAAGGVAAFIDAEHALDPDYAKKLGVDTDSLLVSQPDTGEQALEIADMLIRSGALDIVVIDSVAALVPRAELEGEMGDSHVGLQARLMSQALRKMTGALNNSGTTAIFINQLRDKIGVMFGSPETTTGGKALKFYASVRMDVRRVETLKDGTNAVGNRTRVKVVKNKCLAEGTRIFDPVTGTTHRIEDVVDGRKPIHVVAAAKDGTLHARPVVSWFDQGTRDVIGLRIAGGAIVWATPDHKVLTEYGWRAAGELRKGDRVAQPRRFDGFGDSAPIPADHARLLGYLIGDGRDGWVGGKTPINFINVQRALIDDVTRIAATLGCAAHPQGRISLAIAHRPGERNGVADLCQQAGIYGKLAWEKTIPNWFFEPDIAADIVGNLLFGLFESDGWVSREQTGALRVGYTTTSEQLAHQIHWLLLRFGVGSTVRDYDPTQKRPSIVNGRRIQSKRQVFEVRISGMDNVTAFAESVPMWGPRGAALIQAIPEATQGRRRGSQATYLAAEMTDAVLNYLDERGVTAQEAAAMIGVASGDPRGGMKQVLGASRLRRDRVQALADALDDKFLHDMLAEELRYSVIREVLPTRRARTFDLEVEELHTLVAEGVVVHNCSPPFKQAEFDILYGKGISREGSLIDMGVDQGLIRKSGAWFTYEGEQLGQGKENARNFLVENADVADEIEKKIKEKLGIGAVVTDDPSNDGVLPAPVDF
# Arbovirus inh repeat – also measured in Arbovirus inh; calls as there; inhibition, %; measured here: 10K subset replicate screen; many hits read low in the repeat;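 first of two repeat runs on a subset; 0% = infected and 100% = uninfected wells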
# An asterisk follows results filed as active; ? = inconclusive; . = no result given; & = joins results of further samples.
SMILES,YopH PTP inh,Mtb H37Rv,Arbovirus inh,Mtb betalactam,RecA intein inh,others
COC(=O)c1[nH]c2cccc(OC)c2c1NC(=O)CCN1CCN(c2cccc(Cl)c2)CC1,-33,-6%,12,.,.,
CN(C)CCN(C(=O)c1ccc(S(=O)(=O)N2CCc3ccccc32)cc1)c1nc2ccc(F)cc2s1,.,.,.,-12,3.5,
COc1ccc(CCn2c(SCCN3CCCCC3)nc3ccccc3c2=O)cc1OC,.,4%,-28,-5,5.0,
Cc1ccc(N2CCN(S(=O)(=O)c3ccc(Cl)s3)CC2C)cc1 (configuration not stated),.,.,.,-14,6.6,
Cc1ccc(S(=O)(=O)N/N=C/c2ccc(OS(=O)(=O)c3ccc(C)c([N+](=O)[O-])c3)cc2)cc1,14,5%,1,-16,3.7,
Cc1ccc(N(CC(=O)NC2CCCCC2)C(=O)CCC(=O)Nc2nccs2)cc1,.,.,.,-8,-1.5,
COc1ccc(C2CCCN2C(=O)Nc2ccc(Cl)cc2)cc1OC (configuration not stated),-30,8%,0,-5,-0.7,
COc1cc2c(cc1OC)-c1cc(Nc3ccc(C)cc3)nc(=O)n1CC2,.,.,.,4,1.7,
CC(C)Oc1ccc(NC(=O)Oc2ccccc2)cc1,5,83%,-6,96,-0.7,Arbovirus inh repeat=4
COCC(=O)N(CCN(C)C)Cc1cc2cc3c(cc2nc1Cl)OCO3,.,-4%,2,-3,.,
CCCN(C(=O)Cc1nc(N)n[nH]1)C1(C(=O)Nc2ccccc2C)CCCCC1,16,-2%,6,-16,-3.4,
CCOC(=O)N1CCN(C(=O)CSc2nc3c(cnn3-c3ccccc3)c(=O)[nH]2)CC1,-40,-6%,6,4,-6.6,Arbovirus inh repeat=-5
COc1cc(CCC(=O)Nc2c(C(=O)N3CCN(c4ccccc4)CC3)oc3ccccc23)on1,.,.,.,9,-1.4,
CCOC(=O)CSc1nc2cccnc2n1C,.,-12%,2,-7,-1.8,
Cc1ccc2c(cnn2C(=O)CCC(=O)NCc2cccc(Br)c2)c1,.,.,.,-1,1.0,
O=C(Cc1cccc(C(F)(F)F)c1)NCc1cccc(Cl)c1,-15,17%,7,0,3.1,
COc1cc(CN2CCC(n3nccc3NC(=O)C3CCOC3)CC2)ccc1F (configuration not stated),.,.,.,-7,3.1,
O=C(N/N=C/c1c[nH]c2ccccc12)c1ccccc1Cl,.,.,.,-5,-1.1,
Cn1c(O)c(N=NC(=O)c2cccc(S(=O)(=O)N3CCCCC3)c2)c2ccccc21,-17,7%,-14,-4,3.0,
C[C@H](NC(=O)[C@@H]1CSC2c3ccccc3C(=O)N21)C(=O)NCCc1ccccc1 (some centres not stated),.,.,.,1,-5.6,
COc1ccc(C(=O)O/N=C(\N)c2ccccc2)cc1OC,.,.,.,8,1.3,
COc1ccc(-c2[nH]ncc2CN2CCCO2)cc1F,.,-3%,-2,-1,-1.2,
N/C(=N\N=C\c1ccc(O)cc1)c1nonc1N,.,3%,-8,-7,0.6,
CN1CCN(CC(=O)Nc2c(C#N)cnn2-c2ccccc2)CC1,.,-4%,.,-1,0.7,
Cc1ccccc1OCC(=O)NCCNC(=O)c1ccncc1,.,.,.,8,-3.4,
# Next section.
SMILES,YopH PTP inh,Mtb H37Rv,Arbovirus inh,Mtb betalactam,RecA intein inh,others
CN(C)c1ccc(NC(=O)c2cccc(C(=O)Nc3ccc(N(C)C)cc3)n2)cc1,-10,77%,2,13,2.3,
NC(N)=NC(=O)c1nc(Cl)c(N)nc1N,-29,4%&-12%&-4%,6,4&2&-1,-1.3&-1.7&-4.0,
CCN(CC)CCCNC(=S)N(Cc1cccnc1)Cc1cc2cc(C)cc(C)c2[nH]c1=O,.,0%,2,2,0.0,
Cc1cc(C)n2nc(-c3ccc(Cl)cc3)cc2n1,.,.,.,9,1.4,
CC(=O)n1cc([C@H]2C=C(C(=O)N3CCOCC3)O[C@@H](OCCCCO)C2)c2ccccc21,.,-3%,.,-7,0.1,
COc1ccc(NC(=S)Nc2ccc(Oc3ccccc3)cc2)cc1,7,?,5,90,-2.0,
CC(=O)c1ccc(N(CC(=O)NCC2CCCO2)C(=O)CCC(=O)Nc2cc(C)on2)cc1 (configuration not stated),.,.,.,-5,-0.3,
NC(=O)N/N=C/c1cn(CC(=O)Nc2ccc(F)cc2)c2ccccc12,.,?,.,99,-1.5,
O=c1[nH]c(O)c(/C=C2\C=NN=C2c2ccccc2)c(=O)[nH]1,-4,-5%,0,1,-4.9,
CC1(C)Cc2c(cnn2-c2cccc(F)c2)C(NC(=O)CCN2CCCC2=O)C1 (configuration not stated),.,.,.,?,1.6,
COc1ccc(OCc2nnc(SCC(=O)NCc3ccco3)o2)cc1,-35,-4%,10,95,-2.0,
C=CCNC(=O)c1ccc(NC(=O)CC2SC(N3CCCC3)=NC2=O)cc1 (configuration not stated),.,.,.,1,-2.1,
CC(C)CNc1nc(Oc2ccc(=O)n(-c3ccccc3)n2)nc(N2CCOCC2)n1,-39,2%,-6,3,8.2,
Cn1cc(-c2nnnn2-c2ccc(Cl)cc2)c(=O)c2ccccc21,-17,-6%,4,0,-3.4,
Cc1ccc(-c2nc(CS(=O)CC(=O)NCCC(C)C)c(C)o2)cc1 (configuration not stated),.,14%,-2,4,12,Arbovirus inh repeat=-5
O=C(Cn1cnc2ccccc2c1=O)c1ccc(Cl)cc1,.,-30%,0,.,1.4,
CC(C)(C)OC(=O)N[C@@H](Cc1ccccc1)c1nnc(S(=O)(=O)Cc2cccc(F)c2)o1,10,7%,-2,75,12,
Cc1cccc(C2C3=C(Nc4[nH]n(-c5ccccc5)c(=O)c42)c2ccccc2C3=O)c1 (configuration not stated),-5,6%,22,.,8.8,
N#Cc1c(/N=C/C2C(=O)NC(=S)NC2=O)sc2c1CCCC2,.,-6%,9,-13,-11,
Cc1ccc(C23CC4CC(CC(NC(=O)N5CCN(C)CC5)(C4)C2)C3)cc1,-36,1%,-26,-8,-1.9,
CCOC(=O)[C@H](O)[C@@H](O)c1cccc([C@H](O)[C@@H](O)C(=O)OCC)c1,.,.,.,2,-1.0,
CC(C)(C)NC(=O)c1cc(NC(=O)c2cccs2)cc(NC(=O)c2cccs2)c1,.,.,.,5,2.0,
Cc1occc1C(=O)N/N=C/C1=C(N2CCOCC2)C(=C\c2ccc(Cl)cc2)/CC1,-15,-5%,3,3,-2.2,
Cc1ccc2nc(NC3=NC(CC(=O)O)C(=O)N3)nc(C)c2c1 (configuration not stated),.,-1%,0,-5,0.5,
O=C(Cn1ncc2c3ccccc3n(Cc3cccc(Cl)c3)c2c1=O)NCC1CCCO1 (configuration not stated),.,.,.,-3,2.6,
# (next part)
SMILES,YopH PTP inh,Mtb H37Rv,Arbovirus inh,Mtb betalactam,RecA intein inh,others
Oc1ccccc1/C=N/Nc1cc(N2CCCC2)nc(N2CCCC2)n1,6,40%,16,97,1.1,
CCOC(=O)c1c(/N=C/c2ccc(C)cc2O)sc2c1CCC2,-21,-7%,-3,48,-0.3,
CCNCc1cc([N+](=O)[O-])ccc1OCC,.,-1%,1,-7,-3.4,
O=C(c1ccccc1)N1CCN(CC2CC=CCC2)CC1 (configuration not stated),-24,-5%,11,-2,-1.9,
Cc1ccc(CNC(=O)c2ccc(N3CCC4(CC3)CC(c3ccccc3)=NO4)c(NC(=O)c3ccco3)c2)cc1,.,.,.,-3,1.4,
Cc1ccc(CN2CN(S(=O)(=O)c3cccs3)c3nc4ccccc4nc32)cc1,-32,.,7,-5,0.9,
COc1ccc(S(=O)(=O)N2CCN(C)CC2)cn1,.,.,.,-7,-0.9,
COCc1cc(/C=N\NC(=O)COc2ccccc2)ccc1OC,-2,3%,4,3,-4.7,
COc1cccc(-c2nc(N3CCC(C)CC3)c3ccccc3n2)c1O,-12,-4%,10,3,1.3,
COn1c(=O)c(-c2ccc(Cl)cc2)[n+]([O-])c2ccccc21,10,-1%,10,-6,.,
CCC(=O)c1ccc(OCC(=O)c2ccc3c(c2)NC(=O)CO3)cc1,.,-7%,.,1,0.3,
O=C(c1cc2ccccc2cc1OCC(O)CN1CCCCC1)N1CCCCC1 (configuration not stated),.,1%,-5,.,.,Arbovirus inh repeat=9
CC(=O)NCCNS(=O)(=O)c1ccc(C)c([N+](=O)[O-])c1,.,1%,2,7,1.9,
CCOC(=O)Nc1ccc2c(c1)N(C(=O)CN)c1ccccc1CC2,.,.,.,-4,7.3,
Clc1ccc(OCc2nc3ccccc3[nH]2)cc1,.,5%,-7,0,2.9,
COC(=O)/C(=C\Nc1ccc(Cl)cc1Cl)NC(=O)c1ccc(Cl)cc1Cl,-2,.,-29,79,-0.5,
O=C(Nc1nccs1)C1CCN(S(=O)(=O)c2cccnc2)CC1,-54,-2%,6,-4,-1.7,Arbovirus inh repeat=-1
CCCc1cc(=O)[nH]c(SCC(=O)NC2CCCCC2)n1,-21,0%,-1,8,0.0,Arbovirus inh repeat=9
Cc1cc(OC(=O)c2ccccc2)c([N+](=O)[O-])c(=O)[nH]1,.,.,4,.,0.7,
CC(C)OP(=O)(OC(C)C)C(C)NC(=O)Cc1ccccc1 (configuration not stated),.,-13%,19,-5,-0.2,
O=C(NC(=S)Nc1cc(Cl)ccc1O)c1cccc(Br)c1,.,?,.,95,3.9,
CCOC(=O)c1sc(NC(=O)c2cccc(S(=O)(=O)N3CCc4ccccc43)c2)c(C#N)c1C,.,-3%,.,5,1.4,
CSC1=NSC2=NC(=O)/C(=C/c3coc4ccccc4c3=O)C(=N)N12,-37,-5%,-8,2,.,
COC(=O)/C(C#N)=C/c1c(N2CCCCCC2)nc2ccccn2c1=O,.,.,.,?,1.8,
CCn1c(C)nc2cc(C(=O)NNC(=S)Nc3ccccc3Cl)ccc21,-24,1%,-6,1,4.2,

# Ordered by count of non-hydrogen atoms (high to low): some entries from above.
SMILES,YopH PTP inh,Mtb H37Rv,Arbovirus inh,Mtb betalactam,RecA intein inh,others
O=C(c1cc2ccccc2cc1OCC(O)CN1CCCCC1)N1CCCCC1 (configuration not stated),.,1%,-5,.,.,Arbovirus inh repeat=9
O=C(NC(=S)Nc1cc(Cl)ccc1O)c1cccc(Br)c1,.,?,.,95,3.9,
CC(=O)NCCNS(=O)(=O)c1ccc(C)c([N+](=O)[O-])c1,.,1%,2,7,1.9,

# (further entries)
SMILES,YopH PTP inh,Mtb H37Rv,Arbovirus inh,Mtb betalactam,RecA intein inh,others
C=CCNc1nc2c(c(=O)[nH]c(=O)n2C)n1CCOc1ccccc1,.,.,.,-8,-0.8,
COc1ccc(NC(C)=O)cc1S(=O)(=O)Nc1ccccc1C(=O)N1CCCC1,.,1%,-6,1,0.4,
Cc1noc(C(=O)Nc2ccc(F)c(Cl)c2)c1Cl,.,.,.,0,-1.4,
COc1cc(/C=N\n2nnnc2N)ccc1OCc1ccc(F)cc1,-9,5%,-4,19,-5.2,
O=C(Nc1ccccc1)Nc1nnc(Cc2ccc([N+](=O)[O-])cc2)s1,-1,3%,-22,2,1.1,
O=C(O)CCn1cc(/C=C2/NC(=S)N(c3ccccc3)C2=O)c(-c2ccccc2)n1,-30,-2%,7,-3,1.0,
COc1ccc(-c2ccccc2)c2oc(-c3ccco3)cc(=O)c12,.,11%,.,45,-0.1,
c1cncc(C2CCCN2)c1 (configuration not stated),.,-18%,.,-13,1.2,
O=C(O)c1cc(NC(=O)c2cccc(F)c2)cc(NC(=O)c2cccc(F)c2)c1,.,.,.,-1,2.7,
Cc1cc(C(=O)Nc2ccon2)c(C)o1,.,1%,-4,13,-8.4,
COc1cc(NC(=O)Cn2c(-c3cncs3)nc3ccccc32)cc(OC)c1OC,-14,-2%,5,4,2.4,
CCOC(=O)C1CCCN(C(=S)Nc2ccc(F)cc2)C1 (configuration not stated),.,-5%,0,-8,3.9,
O=c1[nH]c(=O)n(Cc2ccccc2)c(O)c1/C=C1\C=Nc2ccccc21,.,1%,2,5,.,
CCOC(=O)CC(N)c1cccc([N+](=O)[O-])c1 (configuration not stated),.,-2%,8,3,0.7,
COCC1CCN(C(=O)c2cc(COc3ccc(F)cc3F)on2)C1 (configuration not stated),.,.,.,-1,1.5,
O=C(/C=C/c1ccccc1[N+](=O)[O-])Nc1ccc(S(=O)(=O)Nc2ncccn2)cc1,.,.,.,-1,-0.6,
Brc1c(OCCOCCn2cncn2)ccc2ccccc12,-19,3%,3,-4,2.9,
Cc1cccc(NC(=O)CCOc2ccccc2)c1C,.,.,.,-2,-0.5,
Cc1ccc(C)c(-n2c(SCC(=O)Nc3nonc3C)nnc2-c2ccoc2C)c1,-38,-4%,6,58,6.7,
COc1ccccc1N(CN1CCCC1=O)C(=O)c1ccccc1F,-5,-7%,6,-4,-5.5,
Cc1ccc(NC(=S)NN2CCN(C)CC2)c(C)c1,-5,-1%,-5,-3,2.0,
CCn1c(Sc2ccc([N+](=O)[O-])cn2)nnc1-c1ccco1,.,-3%,-10,36,7.1,

# Some of the compounds tested; the hit share may differ from the screen's.
